PPARg SRC2 recr: promotes SRC-2 coactivator recruitment by human PPARgamma | 200,000 compounds, 0.34% hits | PPARgamma LBD-SRC-2 recruitment, biochemical | activation, % at 8 µM; in the data active means activation above about 22%;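 further: 0% = vehicle and 100% = reference agonist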
PPARg SRC3 recr: promotes SRC-3 coactivator recruitment by human PPARgamma. activation, % at 8 µM. AID 731. biochemical PPARgamma/SRC-3 coactivator recruitment assay. 200,000 compounds, 0.26% hits. P37231; in the data active means activation above about 23%;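 further: 0% = DMSO and 100% = reference agonist; some compounds past the cut are filed as inactive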
PPARg SRC-1 ag: PPARgamma-driven SRC-1 recruitment agonism; AID 631; 200,000 compounds, 0.41% hits; activation, % at 8 µM; PPARgamma-SRC-1 coactivator recruitment biochemical assay; P37231; in the data active means activation above about 19%;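 further: 0% = DMSO and 100% = reference agonist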
SRC2 TRFRET art: counter-screen for PPARgamma SRC-2 recruitment agonists: TR-FRET artefact; stronger effect = higher value; TR-FRET ratio at 8 µM; AID 1049; 200,000 compounds, 0.4% hits; in the data active means TR-FRET ratio above about 2000; further: inactives centre near 1500; reference of the scale not given here
S1P3 antagonist: blocks the human S1P3 receptor; Q99500; CHO S1P3 NFAT-BLA reporter, FRET fluorescence, antagonist mode; inhibition, % at 4.98 µM; 170,000 compounds, 0.27% hits; AID 485;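 active means inhibition above the plate cutoff, the mean inhibition of test wells on that plate plus 3 SD, cut at about 28% in these data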;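 further: cells challenged with S1P at its EC80 of 0.8 µM; blue over green emission ratio from cleaved BLA substrate after 4 h stimulation; 0% = S1P-stimulated wells and 100% = unstimulated DMSO-only wells; some compounds past the cut are filed as inactive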
Target sequence (Q99500 whole entry, looked up): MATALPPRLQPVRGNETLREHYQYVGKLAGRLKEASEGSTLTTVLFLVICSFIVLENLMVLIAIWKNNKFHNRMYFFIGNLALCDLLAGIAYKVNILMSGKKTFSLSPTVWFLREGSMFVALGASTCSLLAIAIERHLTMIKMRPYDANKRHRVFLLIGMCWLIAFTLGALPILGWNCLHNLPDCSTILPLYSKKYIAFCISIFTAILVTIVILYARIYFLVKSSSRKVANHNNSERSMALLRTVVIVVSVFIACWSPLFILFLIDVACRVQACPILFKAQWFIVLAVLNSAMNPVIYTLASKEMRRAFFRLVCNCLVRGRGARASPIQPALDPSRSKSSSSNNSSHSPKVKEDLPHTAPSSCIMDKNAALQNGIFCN
G6PDH CS: inhibits Leuconostoc G6PDH, flagging false hits in G6PDH-based assays | 200,000 compounds, 0.12% hits | Purified L. mesenteroides G6PDH, diaphorase/resazurin coupled fluorescence, 45 min | inhibition, % at 5 µM | AID 1020; in the data active means inhibition above about 50%
Diaph inh CS: inhibits diaphorase or chemically oxidizes, flagging diaphorase assay artifacts. inhibition, % at 20 µM. 190,000 compounds, 0.69% hits. diaphorase resazurin-to-resorufin fluorescence, NADH, 16 min; bacterial (C. kluyveri) enzyme, not human;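 active means primary screen inhibition at 20 µM above a set limit, cut at about 50% in these data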;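 further: plate controls were DMSO with full reaction for no effect and wells lacking NADH for full effect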
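Test system: diaphorase enzyme from Clostridium kluyveri; amount: diaphorase at 0.14 U/mL in enzyme working solution; detection: fluorescence of resorufin formed from resazurin, Ex 544/Em 590 nm; times: reaction incubation of 16 min at room temperature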
ROMK mod: modulates human ROMK potassium channel activity; P48048; 130,000 compounds, 2% hits; B-score at 10 µM; Tet-inducible ROMK, thallium flux fluorescence; actives lie on both sides; AID 1918;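 active means signal ratio slope over the read window, or its plate-corrected B-score, at least 3 SD from the plate mean, either direction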;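 further: B-score of the F/F0 ratio slope over 7 to 12 s after thallium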
Target sequence (P48048 whole entry, looked up): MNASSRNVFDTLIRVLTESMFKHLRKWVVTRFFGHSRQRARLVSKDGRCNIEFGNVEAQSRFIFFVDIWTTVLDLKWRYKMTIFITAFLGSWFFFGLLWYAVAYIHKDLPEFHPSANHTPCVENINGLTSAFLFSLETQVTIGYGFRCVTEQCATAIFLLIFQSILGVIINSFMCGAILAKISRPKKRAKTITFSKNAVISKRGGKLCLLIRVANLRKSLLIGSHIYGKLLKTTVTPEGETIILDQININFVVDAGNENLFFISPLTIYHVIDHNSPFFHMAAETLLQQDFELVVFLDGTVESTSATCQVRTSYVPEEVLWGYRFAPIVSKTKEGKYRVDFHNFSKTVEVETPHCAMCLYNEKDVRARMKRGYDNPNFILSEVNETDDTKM
An asterisk follows results filed as active; . = no result given. Only part of the results is shown (hit frequency here may not be typical).

SMILES	PPARg SRC2 recr	PPARg SRC3 recr	PPARg SRC-1 ag	SRC2 TRFRET art	S1P3 antagonist	G6PDH CS	Diaph inh CS	ROMK mod
O=C(Nc1nc2ccc(Cl)cc2s1)C1CCCO1 (stereo unspecified)	-4	11	0	1501	.	6	2	-1.2
Cc1oc2ccc(NS(=O)(=O)c3ccc(C(C)(C)C)cc3)cc2c1C(=O)Nc1ccccc1	-5	-2	-10	1413	.	11	20	.
CC1CCN(C2CCN(S(=O)(=O)c3ccc(F)cc3)CC2)CC1	6	11	2	1643	.	6	10	.
CN(C)C(=O)COn1c(SCC(=O)N(C)C)nc2ccccc2c1=O	8	13	13	1703	.	0	-1	-0.077
Cc1oc(C)c(C(=O)NCCCC(=O)O)c1C(=O)NCCCC(=O)O	7	14	3	1587	-10	11	10	-1.3
COC(=O)c1cc(CSc2nc3ccc(C)cc3[nH]2)oc1C	1	13	3	1702	.	-2	32	-1.7
C=CCn1cnc2scc(-c3ccccc3)c2c1=O	-4	4	2	1580	-2	4	10	.
Cc1ccc2c(c1)N(CCC(=O)NCCCOC(C)C)C(=O)C(C)O2 (stereo unspecified)	0	-4	3	1542	-12	8	10	-0.64
Cc1cc(=O)[nH]c(SCC(=O)Nc2ccc(S(=O)(=O)N3CCOCC3)cc2)n1	7	21	4	1595	.	4	6	.
c1ccc(-c2nc(NCCCn3ccnc3)c3oc4ccccc4c3n2)cc1	6	3	-2	1643	.	-4	-13	.
Cc1ccc(OCc2nnc(SCC(=O)O)n2N)cc1	4	-1	-1	1716	.	12	8	.
CC(=O)N1CCN(Cc2nc3cc(NC(=O)c4ccccc4)ccc3n2C)CC1	3	0	7	1774	.	4	-4	.
N#Cc1cc(-c2ccc(Cl)cc2)cnc1Sc1ccccc1	5	3	-1	1524	.	-2	13	.
CCCC(=O)N(c1ccc(F)cc1)C1C=CS(=O)(=O)C1 (stereo unspecified)	6	15	2	1707	-11	7	-13	.
COc1cc2[nH]c(=O)n(CCC(=O)N3CCC(N4CCCCC4)CC3)c(=O)c2cc1OC	4	16	7	1462	.	4	5	0.41
COCCNC(=O)c1cc(-c2ccc(OC)c(OC)c2)on1	-6	1	6	1392	-28	10	11	.
N#Cc1ccccc1CN1C(=O)S/C(=C/c2cccn2-c2cccc(C(=O)O)c2)C1=O	8	0	13	1535	.	3	14	.
CCOC(=O)Cc1csc(N/N=C/c2ccc(C(F)(F)F)cc2)n1	2	0	-2	1680	.	4	10	.
CCOc1ccc(/C=C/C(=O)c2c(O)c3ccccc3oc2=O)cc1	-2	-3	-2	1489	.	3	12	.
Cc1c(-n2cc(C(=O)c3cc(Cl)ccc3O)cc(C#N)c2=O)c(=O)n(-c2ccccc2)n1C	1	2	4	1402	.	11	11	.

Reformatted: results already given.
molecule | PPARg SRC2 recr | PPARg SRC3 recr | PPARg SRC-1 ag | SRC2 TRFRET art | S1P3 antagonist | G6PDH CS | Diaph inh CS | ROMK mod
N#Cc1ccccc1CN1C(=O)S/C(=C/c2cccn2-c2cccc(C(=O)O)c2)C1=O | 8 | 0 | 13 | 1535 | . | 3 | 14 | .
Cc1cc(=O)[nH]c(SCC(=O)Nc2ccc(S(=O)(=O)N3CCOCC3)cc2)n1 | 7 | 21 | 4 | 1595 | . | 4 | 6 | .
COC(=O)c1cc(CSc2nc3ccc(C)cc3[nH]2)oc1C | 1 | 13 | 3 | 1702 | . | -2 | 32 | -1.7
O=C(Nc1nc2ccc(Cl)cc2s1)C1CCCO1 (stereo unspecified) | -4 | 11 | 0 | 1501 | . | 6 | 2 | -1.2

(list continues)
SMILES	PPARg SRC2 recr	PPARg SRC3 recr	PPARg SRC-1 ag	SRC2 TRFRET art	S1P3 antagonist	G6PDH CS	Diaph inh CS	ROMK mod
CCCc1cc(=O)oc2cc(OCc3nn[nH]n3)ccc12	10	-7	2	1509	.	4	8	.
Cc1ccc(C(=O)N2CCN(C3c4cccc5cccc(c45)C3NS(=O)(=O)c3ccccc3)CC2)cc1 (stereo unspecified)	-11	-3	-4	1721	.	3	11	.
O=C(Oc1c(Cl)cc(Cl)c2ccccc12)N1CCCC1	1	2	3	1513	.	5	21	.
Cc1cc2ncn(C3CC(=O)N(C)C3=O)c2cc1C (stereo unspecified)	-4	11	7	1576	.	-1	11	.
CCCn1nc2cc(C(=O)NCc3ccc(C)cc3)ccc2c1OCC	3	1	7	1574	.	12	8	-0.23
CSc1ccc(CCNC(=O)CSc2ccsc2[N+](=O)[O-])cc1	5	12	10	1696	.	5	4	.
COC(=O)c1cn[nH]c1NC(=S)Nc1ccccc1C	12	-1	1	1723	.	0	18	.
Cc1cc(C(F)(F)F)nc(SCC(=O)c2cccc([N+](=O)[O-])c2)n1	1	-7	3	1628	.	5	8	.
CC1(C)CC(=O)C2=C(C1)N(Cc1ccccc1)C(=O)C2(NC(=O)C(C)(C)C)C(F)(F)F (stereo unspecified)	6	8	6	1604	.	8	7	.
COc1ccc(NC(=O)C2(c3ccc(NC(=O)c4ccc(C)cc4)cc3)CCCC2)cc1	1	-8	-8	1713	.	8	13	.
O=C(O)CCN=C1CCCc2ccccc2N1	3	-6	-7	1554	-11	17	1	-0.098
CCOC(=O)c1c(C)n(C)c2ccc(OC)c(NC(=O)CN3CCN(Cc4ccccc4)CC3)c12	5	-2	6	1749	.	6	11	-3.2*
CCCOc1ccc(-c2nc(OC)c3ccccc3n2)cc1	-3	-2	-2	1395	.	-4	21	.
CCCCNC(=O)CC(=O)Nc1ccccc1C(=O)O	3	-1	3	1623	-12	-4	12	.
O=C(CSc1nc(-c2ccccc2)cs1)N1CCc2ccccc21	-4	0	-9	1440	.	1	11	.
O=c1c(-c2nc3ccccc3s2)cccn1Cc1ccc(Cl)cc1	5	7	4	1462	.	14	6	.
Cc1cccc(Nc2ccccc2C(=O)OCC(=O)N2CCOCC2)c1C	-7	-2	2	1424	8	0	16	0.96
CCOC(=O)c1[nH]c(C)c(C(=O)N2CCc3ccccc32)c1C	6	12	0	1386	24	3	0	3.2*
c1ccc(-c2nc3ccccn3c2NCc2ccc3c(c2)OCO3)cc1	7	13	7	1692	.	1	23	.
Cc1nc(NS(=O)(=O)c2ccccc2)sc1NC(=O)OC(C)C	-8	-1	2	1518	.	-1	16	1

The final two records of the part above open the next one:
SMILES	PPARg SRC2 recr	PPARg SRC3 recr	PPARg SRC-1 ag	SRC2 TRFRET art	S1P3 antagonist	G6PDH CS	Diaph inh CS	ROMK mod
c1ccc(-c2nc3ccccn3c2NCc2ccc3c(c2)OCO3)cc1	7	13	7	1692	.	1	23	.
Cc1nc(NS(=O)(=O)c2ccccc2)sc1NC(=O)OC(C)C	-8	-1	2	1518	.	-1	16	1
CCOC(=O)CN1CC23C=CC(O2)C(C(=O)NC2CCCCC2)C3C1=O (stereo unspecified)	8	8	-1	1587	-57	-2	17	-0.18
Fc1ccccc1CNc1cc(Cl)cc(Cl)c1	2	-5	-1	1645	.	4	8	.
CCOC(=O)CN1C(=O)C(Sc2n[nH]c(-c3ccc(C)cc3)n2)CCc2ccccc21 (stereo unspecified)	0	-3	-5	1337	.	4	14	-1.3
O=C(NC(Cc1c[nH]c2ccccc12)c1nnc2n1CCCCC2)c1cccs1 (stereo unspecified)	-2	-3	1	1350	-16	4	22	.
C=CCN1C(=O)C(CC(=O)Nc2ccccc2)SC1=Nc1ccc(S(N)(=O)=O)cc1 (stereo unspecified)	-6	1	-4	1440	.	4	-3	.
COc1ccc(C(=O)OC2CCN(c3ncc(C(F)(F)F)cc3Cl)CC2)cc1	6	0	-2	1557	.	7	39	.
CCC(C)NC(=O)CCC(=O)Nc1ccc2nc(N3CCOCC3)cc(C)c2c1 (stereo unspecified)	1	5	4	1541	1	8	5	-1.9
CCn1c(N)c(C(=O)NCc2cccnc2)sc1=S	7	3	4	1547	54*	3	10	1
COC(=O)c1ccc(-n2cncn2)c(F)c1	-1	1	0	1507	.	8	6	.
O=C(Cn1cnc2cc(Cl)ccc2c1=O)Nc1ccc2c(c1)OCO2	-2	-2	-2	1542	.	15	-1	.
Cc1cccn2c(/C=N/OCc3ccc(F)cc3)c(-c3ccc(Cl)cc3)nc12	-3	2	0	1267	.	2	13	.
N=c1n(CCN2CCOCC2)c2ccccc2n1CC(=O)c1ccc(Cl)c(Cl)c1	9	-2	1	1573	6	11	3	-4.9*
O=C(c1ccc(Br)cc1)c1cc(-c2ccccn2)c(N2CCOCC2)s1	10	20	12	1774	.	9	21	0.39
O=C(O)C1C2C=CC(O2)C1C(=O)NC1CCCc2ccccc21 (stereo unspecified)	-4	9	-1	1628	-1	11	12	.
CN(Cc1cc2ccccc2[nH]c1=O)S(C)(=O)=O	3	1	0	1606	-6	2	6	.
O=C(CSCc1cccc(Cl)c1)NCc1ccc2c(c1)OCO2	3	6	0	1650	.	2	18	.
COc1ccc(CCNC(=O)c2ccccc2NC(=O)c2ccco2)cc1OC	2	18	0	1690	10	6	13	1.1
O=C(CNc1cccc2ccccc12)N/N=C/C(Br)=C/c1ccccc1	7	-3	1	1516	.	0	41	.
CCCCCCCCCCn1cc(C(C)=O)c(=O)[nH]c1=O	1	4	-3	1484	.	4	3	.
Cc1cccc(CSCCNC(=O)CSCc2ccc([N+](=O)[O-])cc2)c1	-4	-8	-7	1357	.	1	13	-2.2
O=C(Nc1ccc(Cl)cc1)OC(CN1CCCCC1)C(F)(F)F (stereo unspecified)	5	5	-2	1442	.	5	10	.
COc1c(N2CCN(C(=S)Nc3ccccc3)C(C)C2)c(F)cc2c(=O)c(C(=O)O)cn(C3CC3)c12 (stereo unspecified)	7	-2	4	1542	.	13	4	.
COCCNC(=O)COC(=O)c1nsc(Cl)c1Cl	4	8	3	1651	-16	10	-3	0.5
C=CCn1c(-c2ccc(Cl)cc2)ccc(C#N)c1=O	2	7	3	1678	.	14	14	.
O=C(O)/C=C/C(=O)Nc1ccccc1-c1ccccc1	4	1	3	1504	.	10	2	.
CCCn1c(Sc2nc3c(c(=O)[nH]c(=O)n3C)n2CCC)nc2c1c(=O)[nH]c(=O)n2C	2	-2	9	1676	.	6	6	.
Oc1[nH]c2ccccc2c1N=Nc1ccc(C(F)(F)F)cn1	7	-1	9	1439	.	-4	1	0.0091
COCCN(C(=O)C(C)C)c1nnc(-c2ccc(C)cc2)s1	7	12	-4	1623	.	11	3	.
N#Cc1cc2c(nc1SC1CCCCC1O)CCCC2 (stereo unspecified)	-4	-11	-7	1401	.	11	-4	.
COc1ccc(NC2=Nc3cccc4cccc2c34)cc1OC	2	-3	13	1486	.	4	1	-0.99
COc1c(F)c(F)c(C(=O)O)c(Nc2ccccc2C)c1F	6	1	0	1541	.	6	1	.
COc1ccc(NC(=O)c2ccc3c(=O)n(Cc4ccco4)c(=S)[nH]c3c2)c(OC)c1	3	3	3	1879	-11	-5	24	.
Cc1ccc(C(=O)NCC(=O)NCC(=O)OCC(=O)c2ccc([N+](=O)[O-])cc2)cc1	2	3	3	1484	.	-6	24	-0.68
O=C(O)CSc1nnc(Cn2c(=O)sc3ccccc32)n1-c1cccc(Cl)c1	6	13	-4	1593	-4	3	10	0.8
Cc1ccc(C(=O)n2cnnc2N)cc1	-1	-4	-2	1552	.	1	-1	.
CC(C)COC(=O)Nc1nnc(SCCOc2ccccc2)s1	-6	1	-3	1436	.	4	-10	.
O=C(CCN1C(=O)c2ccccc2C1=O)N1CCN(C2c3ccccc3-c3ccccc32)CC1	0	-8	1	1418	.	-46	31	.
Cc1ccc(-c2cc(C(=O)N3CCN(c4ccc(F)cc4)CC3)c3ccccc3n2)o1	-2	-14	0	1324	.	2	14	.
COc1cc(/C=N/NC(=O)c2cncc(Br)c2)ccc1OC(=O)c1ccc2c(c1)OCO2	-7	-3	-2	1655	.	6	4	0.5
Cc1ccccc1NC(=O)N1C2CCC1CC(O)(c1cccnc1)C2 (stereo unspecified)	-3	1	1	1689	.	2	13	.

Assay outcomes deposited in PubChem BioAssay by several laboratories.
